# Compound activity (PubChem BioAssay)
# fixLJ activator = increases Burkholderia fixLJ two-component signaling. B. multivorans fixK-promoter GFP reporter, 18 h; hits give high values. z-score (no concentration beside the values). 29,000 tested, 0.3% active;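 active = replicate mean overnight rise in green fluorescent reporter signal, 3 or more SD over negative controls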;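 also: score is relative to vehicle wells of the plate; 300 nL library stock went into each well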
# * hit, by the source's call.
smiles	fixLJ activator
Cc1csc(CCNS(=O)(=O)c2sc3c(c2C(=O)O)CCNC3)n1	-2.43
COc1ccc(S(=O)(=O)Nc2ccc3oc4c(c3c2)C(=O)CC(C)(C)C4)cc1	-0.14
COCCC(=O)N1CCc2cc(S(=O)(=O)NC(C)c3ccccc3)ccc2C1 (stereo not drawn)	-0.66
O=C(CCS(=O)(=O)c1cccc2nonc12)Nc1c(F)cccc1F	0.09
O=C(NCc1ccco1)c1ccc2c(c1)N(Cc1ccc(Cl)cc1)C(=O)c1ccccc1S2=O (stereo not drawn)	0.92
Cc1nc2c(c(=O)[nH]1)CCN(C(=O)Nc1c(C)ccc3nsnc13)CC2	-2.48
N[C@@H]1[C@@H](O)[C@H](O)[C@@H](CO)O[C@H]1O	-0.45
CCCc1cc(CNC2CCN(c3nc(C)nc4sccc34)CC2)on1	0.31
CC(=O)c1ccc(OCC(=O)N2CC(C(=O)O)C(c3ccncc3)C2)cc1 (stereo not drawn)	0.37
CCC(=O)O[C@]1(C(=O)CCl)[C@@H](C)C[C@H]2[C@@H]3CCC4=CC(=O)C=C[C@]4(C)[C@@]3(F)[C@@H](O)C[C@@]21C	-0.12
CCCC12CN3CC(CCC)(CN(C1)C3c1c(C)[nH]c(=O)[nH]c1=O)C2=O (stereo not drawn)	1.98
O=C(O)C1CN(C2CCN(c3ccccc3Cl)CC2)CCC1O (stereo not drawn)	0.33
O=C(NC1CCN(c2cnccn2)CC1O)c1ccc2c(c1)OCCO2 (stereo not drawn)	-3.2
CCOc1ccc(NC(=O)CN(C)S(=O)(=O)c2cnc[nH]2)cc1	-0.11
Cc1ccc(CNC(=O)c2cc3sc(Cl)cc3n2C)cc1	-0.89
Cc1noc(NS(=O)(=O)c2ccc(NC(=O)COc3ccccc3Br)cc2)c1C	-1.37
COc1ccc(NC(=O)Cn2cnc3ccc(S(=O)(=O)N4CCC(C)CC4)cc3c2=O)cc1Cl	0.38
COC(=O)c1ccc(C(=O)OC)c(NC(=O)CN(c2ccccc2)S(=O)(=O)N(C)C)c1	-0.45
COc1ccc(CNC(=O)c2cc3c(-c4ccc(Cl)cc4)nn(C)c3s2)cc1	2.83
CCOC(=O)c1c(Oc2ccc(OC)cc2)nnc(-c2ccccc2)c1-c1ccccc1	0.12
Cn1c(=O)oc2cc(S(=O)(=O)N3CCCC(C(=O)NCCc4ccc(Cl)cc4)C3)ccc21 (stereo not drawn)	-1.94
COc1cccc(-c2cc(C(=O)Nc3ccc(OC)cc3OC)no2)c1	-1.42
COc1ccc(CCNC(=O)CN2CCC3(CC2)OCCCC3O)cc1 (stereo not drawn)	1.28
Cc1cccc(N2CCN(C(=O)Cn3ncc4c3-c3cc(C)ccc3OC4)CC2C)c1 (stereo not drawn)	-0.9
COc1ccc(-n2nc(C(=O)NCCc3ccc(Cl)cc3)c3c4ccccc4n(C)c3c2=O)cc1	0.64
Cc1ccc(O)c(NC(=O)c2ccc(Br)c(S(=O)(=O)N3CCCCC3)c2)c1	0.69
Cc1ccc2c(c1)C(c1ccc(F)cc1)N(C(=O)c1ccc(S(=O)(=O)N3CCCCC3)cc1)CC(=O)N2 (stereo not drawn)	-0.68
CCc1cccc(NS(=O)(=O)c2c(C)nc3sc(CC)nn3c2=O)c1	-1.57
COc1ccccc1NC(=O)c1c(NC(=O)Cc2ccccc2)sc2c1CCC(C(C)(C)C)C2 (stereo not drawn)	-0.45
Cc1cncc(C(=O)N2CC(O)C(Cc3cc(C)no3)C2)c1 (stereo not drawn)	0.2
Cc1ccc(C)c(NC(=O)/C(C#N)=C/c2ccc(C(C)C)cc2)c1	0.55
COc1cc(C2Nc3ccccc3-c3nnc(SCc4ccc(C)cc4)nc3O2)cc(OC)c1O (stereo not drawn)	-1.43
O=C(Nc1ccc(-c2cc(C(F)(F)F)nn2-c2ccccc2)cc1)c1cccc(F)c1	-2.66
COc1ccc2c(c1)c(=O)c(C(=O)c1ccc(Cl)cc1)cn2CC(=O)Nc1ccc2c(c1)OCCO2	-0.59
COc1ccc(OC)c(-c2noc(CSc3nnc(Cc4ccccc4)n3-c3cccc(C)c3)n2)c1	-2.99
COc1ccc(Cl)cc1NC(=O)c1c(C(=O)Nc2cccc(C)c2C)sc2nc(C)cc(=O)n12	0.67
Cc1ccc2cccc(NC(=O)c3ccc(C#N)cc3F)c2n1	-0.13
CCOC(=O)c1ccc(NS(=O)(=O)c2ccc(Br)s2)cc1	-0.97
CCc1ccc(-n2c(N3CCN(c4cccc(C)c4C)CC3)nc3ccccc3c2=O)cc1	-0.81
CCCCN(CC)C(=O)C1CCC(CNS(=O)(=O)c2cccc3nsnc23)CC1 (stereo not drawn)	-1.37
CC1=C(C(=O)OC2CCCC2)C(c2c(F)cccc2Cl)CC(=O)N1 (stereo not drawn)	-0.09
Cc1nnc(SCC(=O)N(C)CCOc2ccc(Cl)cc2C)o1	0.68
Cc1ccc(-c2noc(CN(C3CCCCC3)S(=O)(=O)c3ccc(C)cc3)n2)cc1	-0.26
CSc1ccc(CN2CCN(C(=O)COc3ccc(C)cc3)CC2)cc1	-1.98
CCc1ccc(NC(=O)C2CCCN2S(=O)(=O)c2cccc3nsnc23)cc1 (stereo not drawn)	0.03
COc1ccc(-n2c(C)nnc2SCc2nc(-c3ccc(OC)c(OC)c3)no2)cc1	-2.04
CCC1C(=O)Nc2ccc(OC(F)(F)F)cc2C(=O)N1C (stereo not drawn)	-0.72
CCc1ccc(OCC(=O)N(Cc2ccco2)Cc2ccco2)cc1	-0.16
COc1cccc(-c2cn3c(C(=O)N4CCOC(C(N)=O)C4)csc3n2)c1 (stereo not drawn)	1.34
Cc1ccc2oc(-c3cc(NC(=O)c4cccs4)cc(C)c3O)nc2c1	0.26
Fc1ccc(Nc2c(-c3ccco3)nc3ccccn23)cc1	-2.27
O=C(c1ccccc1-c1nn[nH]n1)N1CCN(Cc2cccc(F)c2)CC1	-0.63
CC1=C(C(=O)N2CCCOC(CN3CCCCC3)C2)OCCO1 (stereo not drawn)	-1.7
CCN1C(=O)c2ccccc2S(=O)c2ccc(C(=O)NCc3ccc(Cl)cc3)cc21 (stereo not drawn)	-0.59
Cc1ccc2occ(CC(=O)Nc3ccc(S(N)(=O)=O)cc3)c2c1	1.74
CCC1CCCCN1C(=O)Cn1c(=O)n(CCCCCC(=O)NCc2ccccc2)c(=O)c2sccc21 (stereo not drawn)	-1.14
CCC(=O)N1CCc2cc(Br)cc(S(=O)(=O)N3CCCC(C(=O)Nc4cc(C)ccc4OC)C3)c21 (stereo not drawn)	-1.3
COc1ccc(-c2c3c(nc4sc(C(=O)Nc5ccc(F)cc5)c(N)c24)CC(C)(C)CC3=O)cc1	-3.03
Cc1cc(CC2CN(C(=O)c3cccc(C(C)C)c3)CC2O)on1 (stereo not drawn)	-0.08
NS(=O)(=O)c1cc2c(cc1Cl)NC=NS2(=O)=O	-1.31

# (continued)
smiles	fixLJ activator
CCc1ccc(NC(=O)N(Cc2cn(CC)c3ccccc23)C2CCCCC2)cc1	-0.08
CCc1c(-c2cccc(C(=O)N3CCN(C4CCCC4)C(=O)C3)c2)cnn1C	0.94
COc1ccc(CNC(=O)c2ccc(NC(=O)N3CC4CCCN4c4ccccc43)cc2)cc1 (stereo not drawn)	1.01
Cc1csc(SCC(=O)N2CCC(Oc3ccncc3)CC2)n1	-0.85
CCN(Cc1ccc(C)o1)C(=O)c1cc(CC(C)C)nc(N)n1	-1.27
O=C(Cn1ncn2c(cc3ccccc32)c1=O)NCc1ccc(F)cc1	-0.34
CCCCN1CCC(O)[C@]2(CCCN(C(=O)C3(COC)CCC3)C2)C1 (stereo partly drawn)	1.46
NS(=O)(=O)c1ccc(NC(=O)CCn2c(=O)oc3ccccc32)cc1	-1.17
COC(=O)c1cc2sc(Cl)cc2n1Cc1c(C)cc(C)cc1C	-0.32
C=Cc1ccc(COc2ccc3oc(-c4ccccc4)c(C(=O)OCC)c3c2)cc1	-0.18
CCc1ccc(NC(=O)CCn2nc(-c3ccccc3OC)c3c(C)cc(C)nc32)cc1	0.04
Cc1ccc2nc(-c3cccs3)c(Nc3ccc4c(c3)OCCO4)n2c1	1.59
Cc1ccccc1Nc1cc(C(=O)NC2CCC(C)CC2)c2ccccc2n1 (stereo not drawn)	-1.65
CCOC(=O)CSc1nc2sc3c(c2c(=O)n1Cc1ccccc1)CCC(C(C)(C)C)C3 (stereo not drawn)	0.47
CN1CCN(S(=O)(=O)c2cccc3c2CN(C(=O)C2CCC2)CC3)CC1	0.24
Cc1ncnc(N2CCN(c3nc4ccccc4n3CCO)CC2)c1C	-0.45
Cc1ccccc1Cn1c(SCc2ccc(C(=O)NC3CCCCC3)cc2)nc2ccncc21	-5.12
CCC(=O)N1CCc2cc(Br)cc(S(=O)(=O)N3CCC(C(=O)NC(C)(C)C)CC3)c21	-1.08
Cc1cccc(NC(=O)CSc2nncn2C)c1	-3.76
Cc1nccn1CC1CCc2c(c3ccccc3n2C)C1=O (stereo not drawn)	-1.63
CC(C)N=c1cc2n(-c3ccc(Cl)cc3)c3ccccc3nc-2cc1Nc1ccc(Cl)cc1	2.69
Cc1cc(F)ccc1Nc1nc2ccc(Cl)cc2n2cnnc12	-0.57
Cc1cc(C)cc(-n2c(SCC(N)=O)nc3c(oc4ccccc43)c2=O)c1	-2.19
CC(C)[C@@H]1CC[C@@H](C)C[C@H]1O	0.57

# Reprinted at random: 5 entries already listed.
smiles	fixLJ activator
CN1CCN(S(=O)(=O)c2cccc3c2CN(C(=O)C2CCC2)CC3)CC1	0.24
CC(C)N=c1cc2n(-c3ccc(Cl)cc3)c3ccccc3nc-2cc1Nc1ccc(Cl)cc1	2.69
CCOC(=O)CSc1nc2sc3c(c2c(=O)n1Cc1ccccc1)CCC(C(C)(C)C)C3 (stereo not drawn)	0.47
CCC(=O)N1CCc2cc(Br)cc(S(=O)(=O)N3CCC(C(=O)NC(C)(C)C)CC3)c21	-1.08
Cc1ncnc(N2CCN(c3nc4ccccc4n3CCO)CC2)c1C	-0.45

# Continued.
smiles	fixLJ activator
CCOc1ccccc1CNC(=O)CCCN1C(=O)COc2ccc(C)cc21	-0.92
Cc1ccccc1C(=O)n1nc(-c2cccnc2)nc1NCc1ccc(F)cc1	-1.79
CCCCS(=O)(=O)c1oc(-c2ccc(F)cc2)nc1S(=O)(=O)c1ccc(C)cc1	-1.63
Cc1oc(C)c2c(=O)cc(-c3ccc4c(c3)OCO4)cc(OC(=O)c3ccc(Cl)cc3)c12	-0.64
Cc1ccsc1CN(C(=O)COc1ccccc1Cl)C1CCS(=O)(=O)C1 (stereo not drawn)	-1.68
CNCC(=O)N1CCC2(CC1)OCCc1sc(C(=O)NCCCCO)cc12	-0.85
Cn1c(NCCCCO)nc2c1c(=O)n(Cc1ccc(Cl)cc1)c(=O)n2C	-1.4
CCOc1cccc2c1Oc1nc(-c3ccccc3)nc(SCC(=O)Nc3ccc(F)cc3)c1C2	-0.55
CCOC(=O)c1c(NC(=O)c2ccccc2OCC)sc2c1CCC(CC)C2 (stereo not drawn)	-0.45
COc1ccc(C2CC(=O)c3cc(-c4nc(-c5cccc(Cl)c5)cs4)c(=O)[nH]c3C2)cc1 (stereo not drawn)	0.06
O=C(c1cc2ncccn2n1)N1CCN2C(=O)OCC2(Cc2ccccc2)C1 (stereo not drawn)	-2.03
c1ccc2oc(-c3[nH]ncc3-c3nc4ncccc4[nH]3)cc2c1	-1.61

# In the list so far, these contain a tert-butyl group.
smiles	fixLJ activator
COc1ccccc1NC(=O)c1c(NC(=O)Cc2ccccc2)sc2c1CCC(C(C)(C)C)C2 (stereo not drawn)	-0.45
CCOC(=O)CSc1nc2sc3c(c2c(=O)n1Cc1ccccc1)CCC(C(C)(C)C)C3 (stereo not drawn)	0.47
CCC(=O)N1CCc2cc(Br)cc(S(=O)(=O)N3CCC(C(=O)NC(C)(C)C)CC3)c21	-1.08

# The listing continues.
smiles	fixLJ activator
Cc1ccc(-n2c3c(c(=O)[nH]c2=O)C(NS(=O)(=O)c2ccc(C)cc2)(C(F)(F)F)C(=O)N3)cc1 (stereo not drawn)	0.12
CC(c1ccncn1)N(C)C(=O)NC1(c2ccc(Cl)cc2)CC1 (stereo not drawn)	-1.33
CCCOc1ccccc1Cn1c(=O)sc2ccccc21	2.61
CCOC(=O)C1CCCN(C(=O)Cn2ncc3c(C)n(Cc4ccccc4F)c(C)c3c2=O)C1 (stereo not drawn)	-0.43
Cc1cc(N2CC(O)C(Cc3ccc4ccccc4n3)C2)nc(N2CCOCC2)n1 (stereo not drawn)	0.18
CCCCC(=O)NCc1cc2n(n1)CCCN(CC(C)C)C2	-3.86
Cc1nn(C)c2nc(N3CCC(O)(c4ccc(F)cc4)CC3)sc12	-1.4
Cc1ccc2oc(C(=O)N(Cc3cccc(F)c3)C3CCS(=O)(=O)C3)c(C)c2c1 (stereo not drawn)	-0.95
O=C(c1cccc2ccnn12)N1CCOCC(O)(CN2CCCC2)C1 (stereo not drawn)	-1.66
COc1cccc(C2CC(=O)N3CN(C4CCCCC4)CSC3=C2C#N)c1 (stereo not drawn)	-1.1
CCc1ccc(-n2c(=O)c3sc4ccccc4c3n(CC(=O)N(CC)Cc3ccccc3)c2=O)cc1	0.01
COc1cccc(CN(C(=O)COc2ccc(Cl)c(C)c2)C2CCS(=O)(=O)C2)c1 (stereo not drawn)	-0.56
CCC(=O)N1CCC(C(=O)NCCN2CCc3ccccc3C2)CC1	-0.67
CCn1c(=O)c2cc(C(=O)NCCc3ccc(OC)c(OC)c3)sc2c2ccccc21	-0.6
CCCOc1ccc(C(=O)Nc2ccc3oc(-c4ccc5ccccc5c4)nc3c2)cc1	0.8

# Sorted by SMILES length (largest number first): part of the list above.
smiles	fixLJ activator
Cc1ccc(-n2c3c(c(=O)[nH]c2=O)C(NS(=O)(=O)c2ccc(C)cc2)(C(F)(F)F)C(=O)N3)cc1 (stereo not drawn)	0.12
CCc1ccc(-n2c(=O)c3sc4ccccc4c3n(CC(=O)N(CC)Cc3ccccc3)c2=O)cc1	0.01
O=C(c1cccc2ccnn12)N1CCOCC(O)(CN2CCCC2)C1 (stereo not drawn)	-1.66

# An excerpt. The share of hits here may be higher or lower than overall.
